D2 PAM: potentiates the human D2 dopamine receptor allosterically. P14416. DiscoveRx D2 beta-arrestin cells, luminescence, 90 min; 100% = 57 uM dopamine signal. potentiation, % (concentration not given with the values). actives 0.23% (n = 360,000). AID 624464; active = potentiation of 50% or more; inconclusive = 30% to 50%; inactive = 30% or less;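 also: compound concentration not given in the record; tested on top of an EC20 dose of dopamine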
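D2 cells co-treated with compound plus 50 nM dopamine (EC20) for 90 min at 37 deg C to detect potentiation. Beta-arrestin recruitment was read as enzyme-fragment luminescence after 1 h at ambient temperature. Full response was set by 57 uM dopamine.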
CtBP-E1A inh: inhibitors of CtBP/E1A interaction; AlphaScreen GST-E1A/His-CtBP binding, 1536-well; stronger effect = lower value; control for the full effect not named in the record; activity change, % (concentration not given with the values); actives 0.49% (n = 340,000); AID 651724; in the data active means activity change below about -65%; inconclusive means about -30% to -65%; inactive means above about -30%; also: % is scaled to controls: 0 for no effect and ±100 for the full control effect
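In 5 uL wells, 23 nL compound meets equimolar GST-E1A and His-CtBP (5X stock 125 nM each) for 2 h, 37 °C. Beads (5X, 50 ug/mL) then 1 h, 37 °C, dark.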
TRPV1 PAM: human TRPV1 potentiation | Q8NER1 | TRPV1-expressing cells, Fluo-8 calcium influx, capsaicin EC20 potentiation; host cell line not named in the record; control for the full effect not named in the record | potentiation, % at 8.33 µM | actives 0.02% (n = 320,000); active means potentiation above 80%; inconclusive means 30% to 80%; inactive means below 30%; also: 0% is about no effect
Target sequence (Q8NER1 whole entry, looked up): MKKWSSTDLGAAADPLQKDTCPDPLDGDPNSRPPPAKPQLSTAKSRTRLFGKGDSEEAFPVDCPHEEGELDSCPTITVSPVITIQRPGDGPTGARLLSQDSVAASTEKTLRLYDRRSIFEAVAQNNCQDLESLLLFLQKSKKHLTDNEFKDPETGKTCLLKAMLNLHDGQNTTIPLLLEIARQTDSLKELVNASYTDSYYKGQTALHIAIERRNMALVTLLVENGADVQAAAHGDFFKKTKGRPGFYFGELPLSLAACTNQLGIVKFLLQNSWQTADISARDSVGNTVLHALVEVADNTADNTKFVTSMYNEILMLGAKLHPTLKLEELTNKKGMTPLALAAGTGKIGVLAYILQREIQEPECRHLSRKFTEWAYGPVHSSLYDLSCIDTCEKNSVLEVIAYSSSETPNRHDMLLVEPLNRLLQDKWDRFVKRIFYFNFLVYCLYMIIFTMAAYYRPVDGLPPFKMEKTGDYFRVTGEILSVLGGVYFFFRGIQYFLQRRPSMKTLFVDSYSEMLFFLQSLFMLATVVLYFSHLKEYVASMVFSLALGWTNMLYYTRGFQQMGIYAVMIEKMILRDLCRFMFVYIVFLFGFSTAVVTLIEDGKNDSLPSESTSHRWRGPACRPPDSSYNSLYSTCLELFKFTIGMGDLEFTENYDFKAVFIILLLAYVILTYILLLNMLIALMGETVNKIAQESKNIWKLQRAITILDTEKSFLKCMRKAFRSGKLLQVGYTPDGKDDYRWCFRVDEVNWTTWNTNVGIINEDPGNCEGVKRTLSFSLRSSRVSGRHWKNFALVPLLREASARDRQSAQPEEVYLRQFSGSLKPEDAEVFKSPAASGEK
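Cells expressing TRPV1 were dye-loaded with Fluo-8 and read kinetically: 10 s baseline, 3 min after compound (agonist portion), then 2 min after EC20 capsaicin (allosteric enhancer portion). Calcium-bound dye fluorescence at 480/520 nm.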
Six1-Eya2 blk: inhibitors of human Six1/Eya2 interaction | Q15475+O00167 | AlphaScreen GST-Six1/His-Eya2 binding, biochemical; stronger effect = lower value; control for the full effect not named in the record | actives 0.56% (n = 360,000) | activity change, % (no concentration beside the values); in the data active = activity change below about -65%; inconclusive = about -30% to -65%; inactive = above about -30%; also: % is scaled to controls: 0 for no effect and ±100 for the full control effect; compound concentration not given in the record
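Homogeneous AlphaScreen proximity assay pairing GST-Six1 with His-tagged Eya2 (added as 5X mix: 250 nM and 500 nM) in 50 mM Tris pH 8.0, 300 mM NaCl, 1 mM TCEP. Glutathione donor and nickel acceptor beads; 1 h, 37 °C, dark.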
TRPML1 ag: human mucolipin-1 channel agonism. Q9GZU1. TRPML1-expressing cells, Ca2+ dye fluorescence, FDSS; host cell line not named in the record; reference of the full effect not given here. activation, % (no concentration beside the values). actives 0.12% (n = 410,000). AID 624414; in the data active = activation above about 50%; inconclusive = about 30% to 50%; inactive = below about 30%; also: 0% is about no effect; the text of the record puts the active cut at 80%
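Agonist activity was taken from a 110 s kinetic Ca2+ dye read on the FDSS after pinning compounds onto TRPML1-DL cells. The cells were seeded at 1,500/well with Tet inducer, incubated about 16 h, then dye-loaded at room temperature.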
TRPML1 inh: blocks the human TRPML1 channel. TRPML1-inducible cells, Ca2+ dye fluorescence, FDSS; stronger effect = lower value; inhibition of EC80 agonist-evoked calcium signal. actives 0.02% (n = 390,000). activity change, negative = inhibition, % (no concentration beside the values). AID 624415. Q9GZU1; in the data active means activity change below about -50%; inconclusive means about -30% to -50%; inactive means above about -30%;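 also: stimulus is agonist 54-4 at its EC80 concentration; % is scaled to controls: 0 for no effect and ±100 for the full control effect; compound concentration not given in the record; the text of the record puts the active cut at -80%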
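TRPML1-DL cells, Tet-induced overnight (~16 h, 37 °C) at 1,500 cells/well, were loaded with Ca8 no-wash dye plus quencher for 45-90 min at room temperature. Compounds were pinned during FDSS kinetic reading; agonist 54-4 at EC80 (4 uM final) then added.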
Numbers without * were called inactive; ? = inconclusive; . = not tested or not shown; & = joins results of further samples. Rows were taken by chance (roughly 0.95% active in at least one column).

Start of the data: the first two compounds, ahead of the listing:
SMILES | D2 PAM | CtBP-E1A inh | TRPV1 PAM | Six1-Eya2 blk | TRPML1 ag | TRPML1 inh
CC(NC(=O)CCN1C(=O)c2ccccc2C1=O)c1ccc2c(c1)CCCC2 (stereo not given) | -23 | 6 | -8 | 0 | -0.3 | 7
CCC(=O)N1CCc2cc(S(=O)(=O)NCCC(=O)N3CCN(c4cccc(OC)c4)CC3)ccc21 | -11 | . | 15 | -3 | 3.1 | -7

The whole of this part, from the first entry:
SMILES | D2 PAM | CtBP-E1A inh | TRPV1 PAM | Six1-Eya2 blk | TRPML1 ag | TRPML1 inh
CC(NC(=O)CCN1C(=O)c2ccccc2C1=O)c1ccc2c(c1)CCCC2 (stereo not given) | -23 | 6 | -8 | 0 | -0.3 | 7
CCC(=O)N1CCc2cc(S(=O)(=O)NCCC(=O)N3CCN(c4cccc(OC)c4)CC3)ccc21 | -11 | . | 15 | -3 | 3.1 | -7
c1ccc2c(c1)ncn2-c1cncnc1 | -3 | 4 | . | 1 | -0.8 | .
COC(=O)c1ccccc1NC(=O)Cn1nc(C(F)(F)F)c2c1CCC2 | 13 | 19 | 22 | 5 | -0.1 | -8
CCOCC(=O)Nc1cccc(-c2nc3cccnc3s2)c1C | -4 | 3 | 3 | -2 | 0.2 | -5
CC(=NNC(N)=O)C1=C(O)C(C(C)C)NC1=O (stereo not given) | -3 | -1 | . | ? | 1.6 | 14
CCN(CC(=O)Nc1c(F)cccc1F)C(=O)CSc1nc2ccccc2o1 | -13 | 12 | 7 | -3 | 0.8 | -8
COc1ccc(CCNC(=O)Cc2c(Cl)cccc2Cl)cc1 | -7 | -18 | -7 | 10 | 0.0 | -2
COCCCNC(CC(=O)Nc1cc(C)cc(C)c1)C(=O)O (stereo not given) | -3 | -13 | . | 4 | . | .
c1ccc(-c2nc[nH]c2-c2ccccc2)cc1 | -1 | -6 | 19&-2 | -12 | 0.0 | -2
CCCc1cc(C(=O)NCC(C)C)no1 | 3 | -19 | . | 6 | 0.8 | 6
Cc1ccc(C(c2nnnn2Cc2ccccc2)N2CCN(Cc3ccccc3)CC2)cc1 (stereo not given) | -12 | -6 | -8 | -19 | 16 | -11
Cc1cc(NC(=O)c2noc3c2CCc2ccccc2-3)no1 | -4 | 1 | -18 | -2 | 0.0 | -9
Cc1ccc(S(=O)(=O)NN=Cc2ccccc2Cl)cc1 | -25 | 5 | . | -3 | 0.1 | 13
CCOc1ccccc1NC(=O)c1ccccc1N(C)S(C)(=O)=O | -6 | 0 | 8 | 0 | -0.4 | -11
COc1ccc(C(=O)N/C(=C\c2ccccc2)C(=O)Nc2cccc(C(=O)O)c2)cc1 | 13 | . | ? | -2 | . | .
Cc1ccccc1C(=O)NNC(=O)c1ccc(Br)cc1 | -5 | . | 2 | 13 | 0.6 | -5
COC(=O)c1ccsc1NC(=O)c1ccc2c(c1)OCCO2 | -1 | 8 | -7 | 6 | 0.3 | 15
COc1ccc(NC(=O)c2cc(-c3cc(F)ccc3OC)n[nH]2)cn1 | -12 | -16 | . | -9 | -0.5 | .
OC[C@@H]1CN(Cc2ccncc2)C[C@H](n2cnc3c(NCc4ccncc4)ncnc32)O1 | -9 | 0 | . | 6 | -0.2 | .
COc1ccccc1C(=O)NC(=O)COc1ccc(Cl)cc1Cl | -1 | 8 | -2 | 7 | 1.3 | 59
Cn1c(=O)c2c(nc(Sc3ncccn3)n2Cc2ccc(Cl)cc2)n(C)c1=O | 0 | 0 | -7 | -2 | -0.2 | -1
CCc1cccc(C)c1NS(=O)(=O)c1c(C)nc2sccn2c1=O | -7 | 2 | -19 | 7 | -0.8&-0.4 | 20&-3
O=C(CCn1nnc2ccccc21)N/N=C\Cc1ccccc1 | -1 | 15 | -10 | 18 | 1.0 | 3
CCOc1cc(C=NNC(=O)CCCC(=O)NN=Cc2ccc(O)c(OCC)c2)ccc1O | -23 | 6 | . | -25 | 0.5 | 10
Cc1ccc(N=Nc2c(N)n(-c3ccccc3)[nH]c2=O)cc1 | -59 | ? | . | ? | 1.6 | 1
COc1ccccc1Cc1c(-c2ccc(OC)c(OC)c2)nc2ccc(Cl)cn12 | 2 | -9 | . | -16 | 0.1 | .
O=C(Nc1ccccc1N1CCN(c2ccc(F)cc2)CC1)C12CC3CC(CC(C3)C1)C2 | -8 | -12 | -6 | -2 | 4.5 | 60
COc1cccc(C(=O)NC2CCNCC2)c1 | -3 | -12 | 2 | 2 | 0.4 | 59
CC(=O)c1cccc(NC(=O)C(NC(C)C)c2ccccc2)c1 (stereo not given) | -9 | 2 | -6 | 3 | -1.2 | 11
CN(C(=O)c1sc2nc(N3CCOCC3)c3c(c2c1N)CCCC3)c1ccccc1 | 13 | 8 | -3 | 4 | 21 | -16
CCC(C)N(C(=O)CSc1ncnc2sccc12)C1CCS(=O)(=O)C1 (stereo not given) | 4 | . | -5 | 0 | -0.9 | 11
CCNS(=O)(=O)c1ccc(CCC(=O)Nc2ccc(C(=O)OC)cc2)cc1 | -9 | 3 | 5 | 2 | 1.2 | -7
COC(=O)c1cc2ccsc2n1CC(=O)Nc1cc(Cl)ccc1OC | -7 | -1 | -36 | 4 | 2.5 | 31
COc1ccc(-c2csc(N(C)C(=O)c3ccco3)n2)cc1 | -3 | 0 | 15 | -9 | -0.3 | -8
COc1ccc(S(=O)(=O)N2CCC(C(N)=O)CC2)cc1 | 1 | 4 | . | 6 | 0.8 | 20
CCNC(=O)C1CCCN(C(=O)c2cccc(C(F)(F)F)c2)CC1 (stereo not given) | -1 | 0 | . | -6 | -0.7 | .
CCSc1nnc(NC(=O)c2c(-c3ccccc3Cl)noc2C)s1 | 23 | 11 | -14 | -26 | 0.1 | 5
Cc1nc(NC(=O)c2ccccc2O)sc1C | -11 | 9 | ? | 5 | -0.4 | 3
C[C@H](CO)N1C[C@H](C)[C@@H](CN(C)C(=O)Nc2ccccc2)Oc2c(NC(=O)NC3CCCCC3)cccc2C1=O | -8 | -7 | . | -6 | -0.7 | 31
Oc1cccc(Nc2nc(O)c(/C=C3\C=Nc4ccccc43)s2)c1 | 3 | ? | -5 | -17 | . | .
Cc1ccc(C(=O)N2CCN(C(=O)CN3CCCC3)C2)cc1 | -30 | 2 | . | 8 | -1.3 | -12
C/C(=C\C(=O)O)C12CC3CC(CC(C3)C1)C2 | -21 | 6 | 2 | 0 | -0.3 | -13
CCN(CC)c1ccc(NC(=O)COc2ccc(C)cc2)cc1 | -2 | ? | . | ? | 0.4 | -10
Cc1ccc(-c2cc(C(=O)N/N=C/c3ccc(F)cc3)n[nH]2)o1 | 2 | -1 | ? | -9 | -0.1 | 7
COc1ccc(NC(=O)c2cccnc2Nc2ccccc2)cc1 | -12 | -13 | 5 | -20 | 3.8 | -16
O=C(NCCC(=O)N1CCN(S(=O)(=O)c2ccccc2)CC1)c1ccc(Br)cc1 | -21 | 3 | 2 | 3 | -0.4 | -8
C=CCn1c(-c2ccccc2)c[nH]c1=S | -9 | -15 | 1 | -13 | 0.7 | 8
Cc1cc(-c2nc3cc(F)ccc3s2)ccc1N | -18 | -20 | . | 32 | 0.9 | 13
CCOC(=O)C/C(C)=N/NC(=O)COc1ccccc1C | -16 | 3 | -3 | 7 | -0.2 | -25
Cc1cccc(N2CCN(C(=O)CN3CCOc4ccccc43)CC2C)c1 (stereo not given) | -2 | 0 | -7 | -23 | 1.0 | 14
Cc1ccc(NC(=O)CSc2nnc(CCNC(=O)OC(C)(C)C)o2)c(C)c1 | 1 | 0 | -20 | 0 | -1.1 | -6
O=c1c(C(c2ccc(Br)cc2)c2c(O)nc3n(c2=O)CCS3)c(O)nc2n1CCS2 | -6 | 2 | -4 | -5 | -0.2 | 11
COc1ccc(C(=O)OCC(=O)NC(=O)NC2CCCC2)cc1[N+](=O)[O-] | -1 | -1 | . | 0 | 2.1 | 22
COc1ccc(C(=O)n2nnc3ccccc32)cc1OC | -4 | -3 | 8 | 4 | -0.2 | 26
Cc1cc(C(=O)CN2C(=O)NC(C)(c3ccccc3)C2=O)c(C)n1CC1CCCO1 (stereo not given) | -2 | 1 | 0 | 3 | 0.0 | 0
Cc1ccc(NC(=O)CN2CCCN(S(=O)(=O)c3ccc(Br)s3)CC2)cc1 | -31 | 2 | 3 | -11 | 1.1 | 22
CCCCN(CC)CCNc1c(NC2CCN(C(=O)OCC)CC2)c(=O)c1=O | -1 | 4 | 2 | 3 | -0.4 | 1
CNC(=O)COC(=O)c1ccc(-c2nc3ccccc3s2)s1 | -1 | 7 | 0 | 10 | -0.4 | 32
COC(=O)c1cccc(NC(=O)CCc2cc(OC)c(OC)c(OC)c2)c1 | 7 | 15 | -9 | 2 | -0.1 | -9
Further records
SMILES | D2 PAM | CtBP-E1A inh | TRPV1 PAM | Six1-Eya2 blk | TRPML1 ag | TRPML1 inh
COc1ccc(NC(=S)N(CCCN2CCOCC2)Cc2ccccn2)cc1 | -9 | -24 | 15 | -2 | 0.9 | -2
CC(NC(=O)/C(C#N)=C/c1cn[nH]c1-c1ccccc1)c1ccccc1 (stereo not given) | -11 | -6 | -3 | -9 | 1.1 | 19
COc1cccc(NC(=O)CCC2CCN(C(=O)c3cccc(NC(C)=O)c3)CC2)c1 | 3 | 9 | 2 | -2 | -0.3 | 7
CCC1(c2ccc(F)cc2)NC(=O)N(CC(=O)Nc2ccccc2C)C1=O (stereo not given) | -16 | 0 | 1 | -18 | 4.9 | 23
CCOc1ccccc1NC(=O)CCCn1cc([N+](=O)[O-])cn1 | -1 | 5 | -5 | 3 | -0.8 | -14
O=C(NC1CC1)c1cccc(NC(=O)C2CC2)c1 | . | -3 | . | -1 | -0.5 | 0
CCC(C)N(C(=O)COC(=O)CNC(=O)c1sc2ccccc2c1Cl)C1CCS(=O)(=O)C1 (stereo not given) | 9 | -2 | -1 | 6 | 0.7 | -10
CC(=O)Nc1nonc1-c1nc2ccccc2n1CC1CC1 | -5 | -2 | -18 | -2 | 2.4 | -6
Cc1cccc(C(=O)NCc2nnc(SCC(=O)Nc3nnc(C)s3)n2C)c1 | -5 | 3 | 24 | 0 | 0.0 | 2
CCOC(=O)c1c(NC(=S)NC)sc2c1CCCC2 | -10 | . | -5 | -2 | 1.4 | 39
Cc1[nH]c2ccccc2c1C(C[N+](=O)[O-])c1ccco1 (stereo not given) | -5 | -8 | 0 | -16 | -0.2 | 31
CC1(C)OC(=O)C(=CNC(CCC(N)=O)C(=O)O)C(=O)O1 (stereo not given) | -7 | 2 | 6 | 9 | 1.0 | 23
CCCN1C2CCCC1CC(NC(=O)c1ccccc1OCC)C2 (stereo not given) | -26 | 10 | 5 | 0 | -0.7 | 7

Only TRPML1 inh, CtBP-E1A inh and D2 PAM (six entries from above):
Structure	TRPML1 inh	CtBP-E1A inh	D2 PAM
O=C(NC1CC1)c1cccc(NC(=O)C2CC2)c1	0	-3	.
CCC(C)N(C(=O)COC(=O)CNC(=O)c1sc2ccccc2c1Cl)C1CCS(=O)(=O)C1 (stereo not given)	-10	-2	9
CC(=O)Nc1nonc1-c1nc2ccccc2n1CC1CC1	-6	-2	-5
Cc1cccc(C(=O)NCc2nnc(SCC(=O)Nc3nnc(C)s3)n2C)c1	2	3	-5
CCOC(=O)c1c(NC(=S)NC)sc2c1CCCC2	39	.	-10
Cc1[nH]c2ccccc2c1C(C[N+](=O)[O-])c1ccco1 (stereo not given)	31	-8	-5

Screening results from PubChem.
